Assay outcomes from PubChem.
Thrombin inh = blocks human thrombin protease activity; P00734; 220,000 compounds, 0.26% hits; inhibition, % at 5 µM; alpha-thrombin, Boc-VPR-AMC fluorogenic substrate cleavage;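 active means inhibition at or above 40%; inactive means inhibition below 40%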;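 further: 0% = enzyme with no compound and 100% = wells without enzyme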
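System: human alpha-thrombin protein; Compound dosing: one concentration per compound, 5 µM, with 0.2% DMSO; Timing: reaction at room temperature; Technique: AMC fluorescence, 355/460 nm; Controls: enzyme without compound as high, wells lacking enzyme as low.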
hK5 inh = inhibitors of human kallikrein 5; recombinant hK5, fluorogenic AMC substrate cleavage; inhibition, % at 5 µM; 210,000 compounds, 0.59% hits;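 active means inhibition of 40% or more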;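 further: 0% = enzyme controls without compound and 100% = no-enzyme blanks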
Target sequence (Q9Y337 67-293 limits assumed): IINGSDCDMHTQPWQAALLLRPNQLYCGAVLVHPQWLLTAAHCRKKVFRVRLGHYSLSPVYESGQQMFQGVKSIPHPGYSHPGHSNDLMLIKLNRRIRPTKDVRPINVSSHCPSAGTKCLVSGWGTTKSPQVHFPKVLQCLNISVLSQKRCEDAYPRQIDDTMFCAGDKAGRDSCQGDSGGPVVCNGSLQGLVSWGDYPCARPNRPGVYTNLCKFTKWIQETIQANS
PERK inhibitor = human PERK inhibition, primary cell-based screen; CHO PERK-DD fusion, SEAP luminescence translation reporter; inhibition, % at 5.6 µM; 220,000 compounds, 0.17% hits;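 active means inhibition above the mean inhibition of all tested compounds plus 3 SD, set separately per screening campaign, cut at about 2.9% in these data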;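 further: PERK kinase domain activated by AP20187 dimerizer at 100 nM; 0% = DMSO with dimerizer and 100% = rapamycin at 8.4 µM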
Furin inh = blocks human furin protease activity; purified furin, fluorogenic substrate cleavage; 220,000 compounds, 0.061% hits; inhibition, % at 30 µM; in the data active means inhibition above about 25%; further: inactives centre near -15
Wee1 degr inh = inhibitors of human Wee1 degradation; P30291; HeLa Luc-Wee1K328M stability, luciferase luminescence; 100% = proteasome inhibitor MG132 effect; reporter increase, % at 5 µM; 220,000 compounds, 1.2% hits;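 active means activation above the mean of all tested compounds plus 3 SD, set per screening run, cut at about 8.8% in these data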;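 further: cells exposed to compound for 20 h before luminescence read; 0% = DMSO alone and 100% = MG132 at 30 µM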
KCC2 mod = modulators of human KCC2 chloride dependent transport. Q9H2X9. KCC2 cells, thallium flux FluoZin-2 fluorescence. B-score of Tl+ flux slope (higher = more flux/activation; lower = inhibition) at 10 µM. 190,000 compounds, 2.2% hits. AID 1456;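 active means thallium flux slope and its plate-corrected score both differing from the plate sample mean at a set confidence after two filtering rounds, in either direction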;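 further: slope of fluorescence scaled to starting intensity during 10 to 20 s after thallium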
p97 inhibitor = inhibitors of human p97 ATPase | 220,000 compounds, 0.42% hits | recombinant p97 ATPase, Kinase-Glo ATP luminescence, 3 h | inhibition, % at 8 µM | P55072; in the data active means inhibition above about 15%;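 further: 0% = DMSO vehicle and 100% = wells lacking enzyme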
Target sequence (P55072 whole entry, looked up): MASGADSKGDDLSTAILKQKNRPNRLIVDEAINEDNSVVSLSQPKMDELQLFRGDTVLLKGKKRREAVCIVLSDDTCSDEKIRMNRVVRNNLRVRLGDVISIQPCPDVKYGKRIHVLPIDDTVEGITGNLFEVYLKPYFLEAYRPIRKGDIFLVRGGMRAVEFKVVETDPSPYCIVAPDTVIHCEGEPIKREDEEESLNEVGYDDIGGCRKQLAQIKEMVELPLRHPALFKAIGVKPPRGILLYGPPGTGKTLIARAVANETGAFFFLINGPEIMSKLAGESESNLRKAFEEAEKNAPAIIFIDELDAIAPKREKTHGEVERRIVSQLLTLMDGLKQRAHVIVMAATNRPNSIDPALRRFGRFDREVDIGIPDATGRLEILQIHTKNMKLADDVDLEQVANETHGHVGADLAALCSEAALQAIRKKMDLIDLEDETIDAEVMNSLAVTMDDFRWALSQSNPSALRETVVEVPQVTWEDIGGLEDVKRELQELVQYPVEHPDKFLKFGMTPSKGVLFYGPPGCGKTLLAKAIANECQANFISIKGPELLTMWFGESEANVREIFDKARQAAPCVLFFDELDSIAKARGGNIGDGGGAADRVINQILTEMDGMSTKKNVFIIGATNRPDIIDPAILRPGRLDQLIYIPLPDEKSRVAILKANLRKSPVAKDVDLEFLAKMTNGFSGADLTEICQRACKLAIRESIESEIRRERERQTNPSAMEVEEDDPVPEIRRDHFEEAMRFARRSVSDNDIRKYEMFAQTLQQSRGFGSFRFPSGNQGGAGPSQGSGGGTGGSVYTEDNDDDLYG
Active calls of the source: *; . = not tested or not shown; [ ] = dose if it differs, or a comment.

Thrombin inh	hK5 inh	PERK inhibitor	Furin inh	Wee1 degr inh	KCC2 mod	p97 inhibitor	Compound
-1	12	-0.7	-13[20 µM]	-1	1	2	O=C(Nc1ccccc1)C1=C(O)CC(c2ccoc2)CC1=Nc1ccccc1 (stereo not drawn)
1	-8	-0.8	-17[20 µM]	-1	-0.43	-2	C/C(=N/NC(=O)c1ccco1)c1cccc(NC(=O)c2ccc(C)o2)c1
1	-9	1.7	-17	-2	-2	5	CCCCNC(=O)N1CCN(Cc2ccc(F)cc2)CC1
-3	10	0.1	-12	1	-0.52	-1	COc1ccc(-c2cc(C(F)(F)F)nc(S(C)(=O)=O)n2)cc1OC
-5	-4	0.2	-26	1	-0.5	2	O=C(NC1CC1)c1ccc2c3c(cccc13)CC2
0	10	0.5	-20	3	.	11	Cc1nc2nc[nH]n2c(=O)c1NS(C)(=O)=O
-10	-4	0.8	-21	0	-0.25	1	O=C(c1cc(-c2ccccn2)nc2ccc(Br)cc12)N1CCN(S(=O)(=O)c2ccccc2)CC1
-3	-3	0.4	-11[20 µM]	0	-0.23	4	COC(=O)c1c(CCl)noc1C(=O)NC(C)C
-3	4	1.0	-8[20 µM]	-1	-0.33	2	Cn1c(=O)c2c(nc(Cl)n2Cc2ccc(Cl)c(Cl)c2)n(C)c1=O
-2	12	1.4	-12[20 µM]	1	0.046	-6	CCOC(=O)c1cc(OC(=O)c2ccccc2Br)n(-c2ccccc2)n1
0	-52	0.3	-33	0	-0.4	2	Cc1ccc2[nH]c(=O)c(-c3noc(C(C)C)n3)cc2c1
-8	-10	-0.9	1[20 µM]	-2	.	-2	Cc1nc2ccc(NC(=O)N3CCSCC3)cc2s1
3	-8	1.5	-22	-4	-0.31	3	N#Cc1ccccc1NC(=O)c1cc(=O)c2ccccc2o1
-3	-6	1.7	-17[20 µM]	4	.	3	CCOc1ccc(Cc2nn[nH]n2)cc1
-10	7	0.6	-22	0	-2.1	0	CCOC(=O)Cc1cc(=O)[nH]c(/N=C(\N)Nc2ccc(C)c(C)c2)n1
2	7	0.4	-23	0	.	-3	Cn1cnnc1SCc1ccc(C(=O)O)cc1
2	-1	0.8	-21	-3	0.39	6	O=C(NC1c2ccccc2-c2ccccc21)N1CCOCC1
5	-4	0.8	-19[20 µM]	3	-0.076	3	CSc1nc(-c2ccc(Cl)cc2)nn1S(=O)(=O)c1ccc(Cl)cc1
-4	-1	0.6	-6	-2	-0.08	1	S=c1[nH]nc(COc2ccccc2)n1/N=C/c1ccco1
0	-8	0.3	-14[20 µM]	2	-0.21	-4	O=C(O)CCCCCCCCCC(=O)c1cccs1
-3	-8	-0.3	-21	0	.	2	CC(CCc1ccco1)NC(=O)c1cc2c(-c3ccccc3F)nn(C)c2s1 (stereo not drawn)
-7	-13	0.1	-17	2	0.022	-3	COC(=O)CCN(C(=O)C1C2CC3CC(C2)CC1C3)c1ccccn1 (stereo not drawn)
-9	-46	1.0	-25	0	.	2	c1ccc2[nH]c(NC3=NCCC3)nc2c1
-15	-18	0.5	-16[20 µM]	2	0.17	0	Cc1cccc(C)c1NC(=O)Cn1nc(-c2ccccc2)nc1-c1ccccc1
-7	-7	-1.2	6[20 µM]	-1	0.19	-12	O=C(CCSc1nc(-c2ccco2)cc(C(F)(F)F)n1)N1CCN(c2ccccc2)CC1
1	-2	-1.4	-14[20 µM]	4	-0.2	-7	CCOc1cc(C)c(Cl)cc1S(=O)(=O)NCc1ccc2c(c1)OCO2
-8	-28	-0.3	-139	-2	-0.018	-2	CCC(C)NCC(=O)Nc1ccc(-c2nc3cc(NC(=O)CNC(C)CC)ccc3o2)cc1 (stereo not drawn)
-9	-2	-0.1	-8	1	0.6	0	Cc1cccc(N2CCN(C(=O)c3ccccn3)CC2C)c1 (stereo not drawn)
-4	1	.	-28	.	-0.17	.	CC(C)c1cc(-c2cc(-c3ccc(Cl)cc3)on2)nc(NC2CCCC2)n1
-11	-3	0.1	-7	-2	1.5	2	O=C(N/N=C/c1ccc2c(c1)OCO2)c1ccc(NS(=O)(=O)c2cccs2)cc1
-3	-12	-1.2	-15[20 µM]	2	-0.58	-5	CCCCCn1ccc(=O)c2c(C(F)(F)F)nccc21
-6	1	0.4	-22	-2	0.092	-3	CCSc1nc(-c2cccs2)nc2ccccc12
1	-29	0.2	-18	0	0.84	3	COc1ccccc1NC(=O)c1nc[nH]c1C(=O)Nc1ccccc1OC
-1	5	1.4	-29	2	0.92	2	COc1ccc(-c2nnc(SC)o2)c(OC)c1
-1	10	-0.5	-19[20 µM]	0	.	-1	Cn1c(=O)c2c(nc(CN3CCc4ccccc4C3)n2Cc2ccccc2F)n(C)c1=O
-1	-4	1.0	8	1	-0.21	4	CCN1C(=O)/C(=C/c2ccc(C)o2)N(C)C1=S
-1	9	-0.6	-16	-2	0.012	-1	COc1ccc(/C=C2\N=C(C)N(c3ccc4ccccc4c3)C2=O)cc1OC
-6	-9	-0.5	-9	1	0.14	-9	C=CCc1cc(C=O)cc(OC)c1OCc1ccc(Cl)cc1
1	5	.	.	.	.	.	COc1ccc(NC(=O)CN2CCN(CC(=O)Nc3cc(OC)cc(OC)c3)CC2)cc1
1	4	-0.7	-16[20 µM]	4	0.32	4	Cn1c(=O)c2c(nc(Br)n2CCSc2ncccn2)n(C)c1=O
-1	-12	0.6	-11	-3	0.072	-2	CCNC(=O)CC1C(=O)N(c2ccccc2)C(=O)N1CCc1ccc(OC)cc1 (stereo not drawn)
-7	2	0.5	-39	4	-0.0088	1	CC1=C(C(=O)Nc2ccccn2)C(c2cccnc2)n2nnnc2N1 (stereo not drawn)
-6	-20	0.5	-12	4	0.85	3	Cc1ccc(N2C(=O)SC(N(CC(=O)O)c3cccc(C)c3)C2=O)cc1 (stereo not drawn)
1	0	1.3	-20	-1	-0.039	7	C[C@H](NC(=O)c1nc[nH]c1C(=O)N[C@H](C)c1ccccc1)C(=O)OC(C)(C)C
-1	-7	1.3	-15	0	0.099	2	COc1ccc2c(c1)CCc1sc(NC(=O)c3ccco3)nc1-2
5	-2	1.6	-16[20 µM]	3	0.71	4	NC(=O)c1cc2nc(-c3ccco3)cc(C(F)(F)F)n2n1
-6	-16	0.9	-26	-1	.	2	Cc1ccccc1CS(=O)(=O)CCC(=O)NCCCN1CCOCC1
-2	5	-0.6	-16[20 µM]	2	.	1	C=CCn1c(Cc2csc(N)n2)nnc1SCC(=O)Nc1ccccc1C(F)(F)F
4	-6	-0.1	-16[20 µM]	-2	-0.43	3	O=c1c2ccccc2nc(-c2ccccc2)n1Cc1ccc(Cl)cc1
-6	-8	-0.3	-7	-1	0.68	2	CC(=O)c1c(C)[nH]c(C(=O)COC(=O)c2cccc(S(=O)(=O)N(C)c3ccccc3)c2)c1C

A draw from above in order of length of the SMILES, falling.
Thrombin inh	hK5 inh	PERK inhibitor	Furin inh	Wee1 degr inh	KCC2 mod	p97 inhibitor	Compound
1	0	1.3	-20	-1	-0.039	7	C[C@H](NC(=O)c1nc[nH]c1C(=O)N[C@H](C)c1ccccc1)C(=O)OC(C)(C)C
-6	-20	0.5	-12	4	0.85	3	Cc1ccc(N2C(=O)SC(N(CC(=O)O)c3cccc(C)c3)C2=O)cc1 (stereo not drawn)
4	-6	-0.1	-16[20 µM]	-2	-0.43	3	O=c1c2ccccc2nc(-c2ccccc2)n1Cc1ccc(Cl)cc1

Carrying on:
Thrombin inh	hK5 inh	PERK inhibitor	Furin inh	Wee1 degr inh	KCC2 mod	p97 inhibitor	Compound
3	-10	1.4	-17	1	-0.36	0	CN(Cc1ccco1)C(=O)Cn1nc(-c2ccc(Cl)cc2)ccc1=O
-13	-1	0.3	-9	0	-0.025	8	CCOC(=O)C1=NN(c2ccc(OC)cc2)C2C(=O)N(c3ccccc3OC)C(=O)C12 (stereo not drawn)
-36	-25	1.3	-5[20 µM]	-2	-0.11	3	Cc1cc2c(c(=O)n1CCN(C)C)C(c1ccncc1)C(C#N)=C(N)O2 (stereo not drawn)
3	17	-0.8	-8[20 µM]	0	0.016	-2	CCn1c(SCC(=O)NCc2ccco2)nc2c(c1=O)SC(C)C2 (stereo not drawn)
0	-20	0.3	-20	-1	0.91	-3	CC(NC(=O)C1c2ccccc2Oc2ccccc21)C1CCCO1 (stereo not drawn)
3	-19	0.1	-2	1	-0.28	8	COc1ccc(/C=C/c2nc(N)nc(-c3ccccc3O)n2)cc1

A portion from the list above, as a working copy:
Thrombin inh	hK5 inh	PERK inhibitor	Furin inh	Wee1 degr inh	KCC2 mod	p97 inhibitor	Compound
-1	9	-0.6	-16	-2	0.012	-1	COc1ccc(/C=C2\N=C(C)N(c3ccc4ccccc4c3)C2=O)cc1OC
-6	-9	-0.5	-9	1	0.14	-9	C=CCc1cc(C=O)cc(OC)c1OCc1ccc(Cl)cc1
1	5	.	.	.	.	.	COc1ccc(NC(=O)CN2CCN(CC(=O)Nc3cc(OC)cc(OC)c3)CC2)cc1
1	4	-0.7	-16[20 µM]	4	0.32	4	Cn1c(=O)c2c(nc(Br)n2CCSc2ncccn2)n(C)c1=O
-1	-12	0.6	-11	-3	0.072	-2	CCNC(=O)CC1C(=O)N(c2ccccc2)C(=O)N1CCc1ccc(OC)cc1 (stereo not drawn)
-7	2	0.5	-39	4	-0.0088	1	CC1=C(C(=O)Nc2ccccn2)C(c2cccnc2)n2nnnc2N1 (stereo not drawn)
-6	-20	0.5	-12	4	0.85	3	Cc1ccc(N2C(=O)SC(N(CC(=O)O)c3cccc(C)c3)C2=O)cc1 (stereo not drawn)
1	0	1.3	-20	-1	-0.039	7	C[C@H](NC(=O)c1nc[nH]c1C(=O)N[C@H](C)c1ccccc1)C(=O)OC(C)(C)C
-1	-7	1.3	-15	0	0.099	2	COc1ccc2c(c1)CCc1sc(NC(=O)c3ccco3)nc1-2
5	-2	1.6	-16[20 µM]	3	0.71	4	NC(=O)c1cc2nc(-c3ccco3)cc(C(F)(F)F)n2n1
-6	-16	0.9	-26	-1	.	2	Cc1ccccc1CS(=O)(=O)CCC(=O)NCCCN1CCOCC1
-2	5	-0.6	-16[20 µM]	2	.	1	C=CCn1c(Cc2csc(N)n2)nnc1SCC(=O)Nc1ccccc1C(F)(F)F
4	-6	-0.1	-16[20 µM]	-2	-0.43	3	O=c1c2ccccc2nc(-c2ccccc2)n1Cc1ccc(Cl)cc1
-6	-8	-0.3	-7	-1	0.68	2	CC(=O)c1c(C)[nH]c(C(=O)COC(=O)c2cccc(S(=O)(=O)N(C)c3ccccc3)c2)c1C
3	-10	1.4	-17	1	-0.36	0	CN(Cc1ccco1)C(=O)Cn1nc(-c2ccc(Cl)cc2)ccc1=O
-13	-1	0.3	-9	0	-0.025	8	CCOC(=O)C1=NN(c2ccc(OC)cc2)C2C(=O)N(c3ccccc3OC)C(=O)C12 (stereo not drawn)
-36	-25	1.3	-5[20 µM]	-2	-0.11	3	Cc1cc2c(c(=O)n1CCN(C)C)C(c1ccncc1)C(C#N)=C(N)O2 (stereo not drawn)
3	17	-0.8	-8[20 µM]	0	0.016	-2	CCn1c(SCC(=O)NCc2ccco2)nc2c(c1=O)SC(C)C2 (stereo not drawn)
0	-20	0.3	-20	-1	0.91	-3	CC(NC(=O)C1c2ccccc2Oc2ccccc21)C1CCCO1 (stereo not drawn)
3	-19	0.1	-2	1	-0.28	8	COc1ccc(/C=C/c2nc(N)nc(-c3ccccc3O)n2)cc1

The list is partial (hit frequency here may not be typical).
